FGF22 binding: binders of recombinant human FGF22 by thermal shift; SYPRO orange fluorescence; percent of sucrose octasulfate shift, DMSO zero; calls only at 9.99 µM; 340,000 compounds, 1.5% hits; Q9HCT0;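 active means melting point raised past a set limit in the mean and every replicate; three in four hits are not shown here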
Target sequence (Q9HCT0 whole entry, looked up): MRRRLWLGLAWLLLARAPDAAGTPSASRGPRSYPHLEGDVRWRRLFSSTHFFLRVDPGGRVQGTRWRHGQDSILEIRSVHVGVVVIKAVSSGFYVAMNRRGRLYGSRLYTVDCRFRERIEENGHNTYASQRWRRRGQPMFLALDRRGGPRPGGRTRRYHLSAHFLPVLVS
Calls only; i = inactive; + = active, no number. This is a subset, so the mix of outcomes need not match the whole.

molecule,FGF22 binding
O=C(Nc1cc(F)ccc1F)N1CCCCN2[C@H](C1)[C@H](c1ccc(-c3ccncc3)cc1)[C@@H]2CO,i
CN(C)CC(=O)N[C@@H]1CC[C@@H](CCn2cc(C3CCCC3)nn2)O[C@@H]1CO,i
CCCC#Cc1ccc2c(c1)O[C@@H](CN(C)C(=O)C1CCC1)[C@H](C)CN([C@H](C)CO)S2(=O)=O,i
O=C(N[C@@H]1CC[C@@H](CCNC(=O)c2ccccc2F)O[C@@H]1CO)c1ccc2c(c1)OCO2,i
Cc1noc(C)c1S(=O)(=O)N(C)C[C@H]1OCCCC[C@H](C)Oc2ccc(NC(=O)Nc3ccc(C(F)(F)F)cc3)cc2C(=O)N([C@@H](C)CO)C[C@@H]1C,i
O=C(C[C@@H]1CC[C@@H]2[C@H](COC[C@H](O)CN2S(=O)(=O)c2ccc(Oc3ccccc3)cc2)O1)NC1CCC1,i
C/C=C/c1ccc([C@@H]2[C@H](CO)N(CC3CCCC3)C23CN(C(=O)CC)C3)cc1,i
C[C@@H]1CN([C@@H](C)CO)C(=O)Cc2cc(NC(=O)C3CCCCC3)ccc2O[C@@H]1CN(C)Cc1ccc(-c2ccccc2)cc1,i
CCCN(C)C[C@@H]1Oc2ncc(-c3ccccc3F)cc2C(=O)N([C@H](C)CO)C[C@@H]1C,i
C[C@@H]1CCCCO[C@@H](CN(C)S(=O)(=O)c2ccc(F)cc2)[C@H](C)CN([C@H](C)CO)C(=O)c2cc(NS(=O)(=O)c3ccc(F)cc3)ccc2O1,i
C[C@H](CO)N1C[C@H](C)[C@H](CN(C)S(C)(=O)=O)Oc2ccc(NC(=O)CCN3CCOCC3)cc2C1=O,i
CCCN1C[C@@H](C)[C@H](OC)CN(C)C(=O)c2cc(NC(=O)C3CC3)ccc2OC[C@@H]1C,i
COCC(=O)N1CC2(C1)CN(Cc1cccc(F)c1)[C@H](CO)c1c2c2ccc(OC)cc2n1C,i
C[C@@H]1CN([C@@H](C)CO)C(=O)c2cc(/C=C/c3ccccc3)cnc2O[C@H]1CN(C)S(=O)(=O)c1ccccc1,i
COc1ccc(S(=O)(=O)N(C)C[C@H]2Oc3ccc(NC(=O)c4ccncc4)cc3CC(=O)N([C@H](C)CO)C[C@H]2C)cc1,i
C[C@@H]1CN([C@@H](C)CO)C(=O)c2cc(NC(=O)c3ccccc3)ccc2O[C@@H](C)CCCCO[C@@H]1CN(C)Cc1ccc(C(=O)O)cc1,i
C[C@@H]1CN([C@H](C)CO)C(=O)c2c(c3ccccc3n2C)-c2ccccc2CO[C@H]1CN(C)S(=O)(=O)c1ccc(C(F)(F)F)cc1,i
CC(C)NC(=O)NCC[C@H]1CC[C@H](NC(=O)Nc2ccccc2)[C@H](CO)O1,i
C[C@@H]1CN([C@H](C)CO)C(=O)c2cc(/C=C/c3ccccc3)cnc2O[C@@H]1CN(C)Cc1ccncc1,i
CCS(=O)(=O)Nc1ccc2c(c1)C(=O)N(C)C[C@@H](OC)[C@H](C)CN(C(=O)NC(C)C)[C@@H](C)CO2,i
C[C@@H]1CN([C@H](C)CO)C(=O)c2cccc(NC(=O)NC3CCCCC3)c2O[C@H]1CN(C)S(=O)(=O)c1cn(C)cn1,i
COc1ccc2c3c([nH]c2c1)[C@H](CO)N(C(=O)c1ccccn1)CC31CCN(C(=O)C2CCCCC2)CC1,i
O=C(C[C@H]1CC[C@H]2[C@@H](COC[C@@H](O)CN2S(=O)(=O)c2ccccc2Cl)O1)NCc1ccccc1Cl,i
Cc1noc(C)c1NC(=O)NCC[C@H]1CC[C@@H](NC(=O)c2ccncc2)[C@H](CO)O1,i
C[C@@H]1CN([C@H](C)CO)C(=O)c2cc(NC(=O)CCC(F)(F)F)ccc2O[C@H]1CN(C)Cc1ccc(Cl)c(Cl)c1,i
CN(C)C(=O)c1ccc(-c2ccc3c(c2)[C@@H]2[C@@H](CCN2C(=O)C2CCCCC2)[C@@H](CO)N3C)cc1,i
CCC(=O)Nc1ccc2c(c1)C(=O)N(C)[C@H]1CC[C@H](CC(=O)NCCOC)O[C@H]1CO2,i
CO[C@H]1CN(C)C(=O)c2cc(C#N)ccc2OC[C@H]2O[C@@H](CC[C@H]2OC)CCN(C)C(=O)[C@H]1C,i
COc1ccc2c3c([nH]c2c1)[C@H](CO)N(C(=O)C1CCC1)CC31CCN(Cc2cccc(F)c2)CC1,i
C[C@H]1CN([C@@H](C)CO)C(=O)CCCn2cc(nn2)CO[C@H]1CN(C)C(=O)Nc1ccc(F)cc1,i
C[C@@H]1CCCCO[C@H](CN(C)S(=O)(=O)c2ccccc2)[C@H](C)CN([C@H](C)CO)C(=O)c2cc(NC(=O)Cc3ccccc3)ccc2O1,i
COc1ccc(C#Cc2cnc3c(c2)C(=O)N([C@H](C)CO)C[C@H](C)[C@H](CN(C)C(=O)Nc2ccc4c(c2)OCO4)O3)cc1OC,i
O=C(C(=O)N1CCC(CNS(=O)(=O)c2cccc3ccccc23)CC1)c1cccs1,i
CO[C@@H]1CN(C)C(=O)c2cc(NS(=O)(=O)CC(F)(F)F)ccc2OC[C@@H](C)N(CC2CCCCC2)C[C@H]1C,i
CNC[C@H]1Oc2ccc(NC(=O)Cn3cnnn3)cc2CC(=O)N([C@H](C)CO)C[C@@H]1C,i
Cc1ccccc1S(=O)(=O)N1CC[C@@H]2[C@H]1c1cc(Br)ccc1N(C)[C@H]2CO,i
CC(C)NC(=O)Nc1ccc2c(c1)C(=O)N([C@@H](C)CO)C[C@H](C)[C@@H](CN(C)C(=O)Nc1ccccc1)O2,i
C[C@H](CO)N1C[C@H](C)[C@@H](CN(C)Cc2cccnc2)Oc2cc(C#CC3CC3)ccc2S1(=O)=O,i
CC(C)NC(=O)Nc1ccc2c(c1)C(=O)N([C@H](C)CO)C[C@@H](C)[C@@H](CN(C)C(=O)NC(C)C)OCCCC[C@H](C)O2,i
COC(=O)[C@@H]1[C@@H](CO)[C@@H]2Cn3c(ccc(-c4ccc(F)cc4)c3=O)[C@@H]2N1C(=O)C1CCC1,i
CCNC(=O)Nc1ccc2c(c1)C(=O)N(C)[C@H]1CC[C@@H](CC(=O)N[C@@H](C)c3ccccc3)O[C@H]1CO2,i
C[C@@H]1CN([C@@H](C)CO)C(=O)c2cccc(NC(=O)c3nc4ccccc4s3)c2O[C@H]1CN(C)C(=O)Nc1ccc(C(F)(F)F)cc1,i
O=C(Nc1ccccc1)N1C[C@H]2[C@@H](c3ccccc31)[C@H](CO)N2C(=O)c1ccccc1F,i
C[C@H]1CN([C@@H](C)CO)C(=O)Cc2cc(NC(=O)c3ccncc3)ccc2O[C@H]1CN(C)C(=O)Nc1ccccc1,i
COc1ccc(S(=O)(=O)N[C@@H]2C=C[C@@H](CC(=O)N3CCN(c4ccccc4)CC3)O[C@@H]2CO)cc1,i
C[C@@H]1CN([C@H](C)CO)C(=O)c2cc(C#CC3CC3)cnc2O[C@@H]1CN(C)Cc1ccccc1C(=O)O,i
C[C@@H]1CN([C@@H](C)CO)C(=O)c2cc(NS(=O)(=O)c3cccs3)ccc2O[C@@H](C)CCCCO[C@@H]1CN(C)C(=O)CCCN(C)C,i
O=C(C[C@@H]1C[C@H]2c3cc(NS(=O)(=O)c4ccc(F)cc4)ccc3O[C@H]2[C@@H](CO)O1)NCc1ccncc1,i

Some of the entries above, set out differently:
SMILES: COC(=O)[C@@H]1[C@@H](CO)[C@@H]2Cn3c(ccc(-c4ccc(F)cc4)c3=O)[C@@H]2N1C(=O)C1CCC1
- FGF22 binding: i

SMILES: C[C@@H]1CN([C@H](C)CO)C(=O)c2cc(C#CC3CC3)cnc2O[C@@H]1CN(C)Cc1ccccc1C(=O)O
- FGF22 binding: i

SMILES: C[C@H](CO)N1C[C@H](C)[C@@H](CN(C)Cc2cccnc2)Oc2cc(C#CC3CC3)ccc2S1(=O)=O
- FGF22 binding: i

Later entries
molecule,FGF22 binding
CC(=O)Nc1ccc2c(c1)C(=O)N(C)[C@@H]1CC[C@H](CC(=O)NCC3CCCCC3)O[C@H]1CO2,i
COc1ccccc1Cc1c(-c2ccc(F)cc2)nc2c3ccccc3ccn12,i
CCCNC(=O)N1CCC2(CC1)CN(C(=O)Nc1ccc(F)cc1)[C@@H](CO)c1[nH]c3cc(OC)ccc3c12,i
C[C@@H]1CN([C@H](C)CO)C(=O)c2cc(NC(=O)Nc3ccc(F)cc3)ccc2O[C@H]1CN(C)S(C)(=O)=O,i
NC(=O)[C@@H]1[C@H]2C(=O)O[C@H](c3ccccc3)[C@H](c3ccccc3)N2[C@H](c2ccc(OCCO)cc2)[C@@]12C(=O)Nc1ccc(C#CC3=CCCCC3)cc12,i
N#C[C@@H]1[C@@H](c2ccc(-c3ccc(F)cc3)cc2)[C@@H](CO)N1c1nc(-c2ccccc2)cs1,i
Cc1nc(N2[C@@H](C#N)[C@@H](c3ccccc3)[C@@H]2CO)sc1C,i
CCNC(=O)C[C@H]1CC[C@H]2[C@@H](COc3ccc(NC(=O)c4cc(C)on4)cc3C(=O)N2C)O1,i
COc1ccccc1CNC(=O)C[C@H]1CC[C@@H](NC(=O)CC2CC2)[C@@H](CO)O1,i
COc1ccc(S(=O)(=O)N2CC[C@@H]3[C@H]2c2cc(C#Cc4cccnc4)ccc2N[C@@H]3CO)cc1,i
COc1cccc(S(=O)(=O)N2CC[C@@H]3[C@H](CO)Nc4ccc(C#Cc5cccnc5)cc4[C@@H]32)c1,i
O=C(C[C@@H]1CC[C@H]2[C@@H](COC[C@@H](O)CN2S(=O)(=O)c2ccccc2)O1)NCCN1CCCCC1,i

Four neighbouring records out of the list so far, quoted:
molecule,FGF22 binding
COc1ccccc1CNC(=O)C[C@H]1CC[C@@H](NC(=O)CC2CC2)[C@@H](CO)O1,i
COc1ccc(S(=O)(=O)N2CC[C@@H]3[C@H]2c2cc(C#Cc4cccnc4)ccc2N[C@@H]3CO)cc1,i
COc1cccc(S(=O)(=O)N2CC[C@@H]3[C@H](CO)Nc4ccc(C#Cc5cccnc5)cc4[C@@H]32)c1,i
O=C(C[C@@H]1CC[C@H]2[C@@H](COC[C@@H](O)CN2S(=O)(=O)c2ccccc2)O1)NCCN1CCCCC1,i

More results follow.
molecule,FGF22 binding
COc1ccccc1-c1ccc([C@@H]2[C@@H](C#N)N(C(=O)C3CCC3)[C@@H]2CO)cc1,i
CCCNC(=O)C[C@@H]1CC[C@@H]2[C@H](COc3ccc(NC(=O)C4CCCC4)cc3C(=O)N2C)O1,i
CO[C@H]1CN(C)C(=O)c2cc(NS(=O)(=O)c3ccccc3)ccc2OC[C@H](C)N(Cc2cccnc2)C[C@H]1C,i
O=S(=O)(N[C@@H]1CC[C@H](CCn2cc(-c3cccc(F)c3)nn2)O[C@@H]1CO)c1ccc(Cl)cc1,i
N#C[C@H]1[C@@H](c2ccc(-c3cccc(F)c3)cc2)[C@H](CO)N1C(=O)CN1CCOCC1,i
CN(C)CCCNC(=O)C[C@H]1CC[C@@H]2[C@H](COC[C@@H](O)CN2CC2CCCC2)O1,i
C[C@@H]1CN([C@H](C)CO)C(=O)c2cc(NC(=O)Cc3cn(C)c4ccccc34)ccc2O[C@H]1CN(C)C(=O)Nc1ccc(F)cc1,i
COc1ccc(S(=O)(=O)N(C)C[C@H]2OCCCC[C@H](C)Oc3ccc(NC(=O)Cc4ccccc4)cc3C(=O)N([C@H](C)CO)C[C@@H]2C)cc1,i
O=C(Cc1cccnc1)N[C@@H]1CC[C@H](CCNS(=O)(=O)c2ccccc2Cl)O[C@@H]1CO,i
COCCNC(=O)C[C@H]1C=C[C@H](NC(=O)NC2CCCCC2)[C@H](CO)O1,i
CC=Cc1ccc2n(c1=O)C[C@@H]1[C@@H](CO)[C@H](C(=O)NCc3cccc(OC)c3)N[C@H]21 (mixture of isomers),i
CC(C)(C)[S@@](=O)N1Cc2cc(C(=O)NCc3ccccc3F)nc(-c3cccc(-c4ccncc4)c3)c2[C@H]1CCO,+
CCC(=O)N(C)C[C@@H]1Oc2cc(C#C[C@@H](C)O)ccc2S(=O)(=O)N([C@@H](C)CO)C[C@@H]1C,i
CCCN(C)C[C@H]1Oc2ncc(-c3cccc(C(=O)N(C)C)c3)cc2C(=O)N([C@@H](C)CO)C[C@@H]1C,i
C[C@@H]1CN([C@H](C)CO)C(=O)Cc2cc(NS(=O)(=O)c3cccs3)ccc2O[C@H]1CN(C)Cc1ccc(-c2ccccc2)cc1,i
O=C(C[C@H]1C[C@@H]2c3cc(NC(=O)Nc4ccccc4F)ccc3O[C@@H]2[C@H](CO)O1)NCc1ccncc1,i
COc1ccc(NC(=O)N[C@@H]2CC[C@@H](CC(=O)NC3CCCCC3)O[C@@H]2CO)cc1,i
Cc1ccccc1S(=O)(=O)N1CCCCN2[C@@H](CO)[C@H](c3ccc(-c4cncnc4)cc3)[C@@H]2C1,i
CO[C@@H]1CN(C)C(=O)c2cc(NS(=O)(=O)c3cccc(F)c3)ccc2OC[C@H](C)N(Cc2cc(F)ccc2F)C[C@H]1C,i
COc1cc2c(c(OC)c1OC)C1(CCCCC1)CC2NS(=O)(=O)C(C)C (stereo not drawn),i
CNC(=O)C[C@H]1CC[C@H]2[C@H](COc3ccc(NC(=O)NC(C)C)cc3C(=O)N2C)O1,i
CCOC(=O)C(CNc1ccc(O)cc1)NC(=O)c1ccccc1 (stereo not drawn),i
O=C(N[C@@H]1CC[C@H](CCNC(=O)C2CCCCC2)O[C@H]1CO)c1ccncc1,i
O=C(Nc1ccc(F)cc1)N1CC(=O)N2[C@H](CO)[C@@H](c3ccc(-c4cccc(F)c4)cc3)[C@H]2C1,i
CO[C@@H]1CN(C)C(=O)c2ccc(NS(C)(=O)=O)cc2OC[C@@H](C)N(C(=O)C2CC2)C[C@@H]1C,i
CCc1cnc(N2[C@H](C#N)[C@H](c3ccccc3)[C@H]2CO)s1,i

Compound activity from PubChem BioAssay.
